# PINK1 modulator = A Quantitative High throughput Screen to Identify Chemical Modulators of PINK1 Expression. actives 0.2% (n = 410,000). Potency, µM (highest dose often 76.6 µM), without a hit: top-dose activation (PINK1 increase), usual class: activators. PINK1 immunofluorescence, high-content cytometry, 24 h; active = well fitted activation curve with a large enough effect; inconclusive = small, poorly fitted or top-dose-only effect; inactive = flat fitted curve, though single readings scatter; cell line not stated here;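 note: potency is the fitted concentration of half-maximal effect; % of control where 0% means no effect; nearly all actives have a fitted effect of over 65% in size; a mitochondrial uncoupler was the plate control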
#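 Measures PINK1 amount and localization on or inside mitochondria by immunofluorescence. Stable cells get compounds at 5 concentrations for 24 hours before fixation and staining; CCCP controls included.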
# TRPML1 agonist = qHTS for Agonists of the Human Mucolipin Transient Receptor Potential 1 (TRPML1) | activation, % (no concentration beside the values) | Mucolipin-1 (Homo sapiens), Q9GZU1 | actives 0.12% (n = 410,000) | TRPML1-expressing cells, Ca2+ dye fluorescence, FDSS; host cell line not named in the record; reference of the full effect not given here; in the data active = activation above about 50%; inconclusive = about 30% to 50%; inactive = below about 30%; note: 0% is about no effect; the text of the record puts the active cut at 80%
#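 Kinetic FDSS Ca2+ read in Tet-induced TRPML1-DL cells (ABD Ca8 dye plus quencher, 45-90 min RT loading): baseline, then compound, then 110 s agonist window; EC80 agonist 54-4 at 4uM final added afterwards for a 110 s antagonist window.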
# D2 potentiator = Beta-Arrestin HTS for Positive Allosteric Modulators of the Human D2 Dopamine Receptor: Potentiators; actives 0.23% (n = 360,000); potentiation, % (test concentration not listed); AID 624464, 2012; DiscoveRx D2 beta-arrestin cells, luminescence, 90 min; 100% = 57 uM dopamine signal; active = potentiation of 50% or more; inconclusive = 30% to 50%; inactive = 30% or less;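 note: compound concentration not given in the record; tested on top of an EC20 dose of dopamine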
#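 D2 cells co-treated with compound plus 50 nM dopamine (EC20) for 90 min at 37 deg C to detect potentiation. Beta-arrestin recruitment was read as enzyme-fragment luminescence after 1 h at ambient temperature. Full response was set by 57 uM dopamine.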
# Six1-Eya2 inh = qHTS Assay for Inhibitors of the Six1/Eya2 Interaction. Homeobox protein SIX1 (Homo sapiens) + Protein phosphatase EYA2 (Homo sapiens), …. AlphaScreen GST-Six1/His-Eya2 binding, biochemical; hits give low values; control for the full effect not named in the record. activity change, % (no concentration beside the values). actives 0.56% (n = 360,000). AID 651725, 2012; in the data active = activity change below about -65%; inconclusive = about -30% to -65%; inactive = above about -30%; note: % is set by controls: 0 for no effect and ±100 for the full control effect; compound concentration not given in the record
# Target sequence (O00167 whole entry, looked up): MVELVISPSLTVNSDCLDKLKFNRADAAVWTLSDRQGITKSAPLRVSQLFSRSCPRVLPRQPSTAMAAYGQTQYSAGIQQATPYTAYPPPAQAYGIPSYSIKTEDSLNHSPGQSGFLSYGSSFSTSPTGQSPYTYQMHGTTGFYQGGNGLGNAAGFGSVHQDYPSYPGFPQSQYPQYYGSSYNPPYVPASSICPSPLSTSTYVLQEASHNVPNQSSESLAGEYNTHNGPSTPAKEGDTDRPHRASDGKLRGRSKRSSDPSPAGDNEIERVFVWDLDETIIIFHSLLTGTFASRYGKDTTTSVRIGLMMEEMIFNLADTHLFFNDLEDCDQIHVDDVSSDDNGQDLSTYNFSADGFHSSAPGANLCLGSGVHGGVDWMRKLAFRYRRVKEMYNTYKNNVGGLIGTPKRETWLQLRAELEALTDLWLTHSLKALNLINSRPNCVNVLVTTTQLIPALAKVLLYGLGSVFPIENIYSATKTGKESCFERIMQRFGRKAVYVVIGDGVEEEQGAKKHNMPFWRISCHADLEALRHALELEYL
# Target sequence (Q15475 whole entry, looked up): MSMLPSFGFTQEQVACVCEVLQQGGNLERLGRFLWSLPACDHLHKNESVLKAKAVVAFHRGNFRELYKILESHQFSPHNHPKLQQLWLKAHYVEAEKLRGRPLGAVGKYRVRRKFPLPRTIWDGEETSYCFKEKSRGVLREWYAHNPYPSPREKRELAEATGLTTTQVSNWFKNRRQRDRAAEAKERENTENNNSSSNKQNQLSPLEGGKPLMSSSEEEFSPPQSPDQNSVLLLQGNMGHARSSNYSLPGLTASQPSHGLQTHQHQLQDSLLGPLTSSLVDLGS
#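 Compounds are tested against tagged Six1 and Eya2 proteins bridged by glutathione donor and nickel acceptor beads; after a one-hour incubation at 37 °C without light, AlphaScreen emission is recorded.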
# D2 ag = Beta-Arrestin HTS for Positive Allosteric Modulators of the Human D2 Dopamine Receptor: Agonists. actives 0.084% (n = 360,000). D(2) dopamine receptor (Homo sapiens), P14416. AID 624465, 2012. activation, % (test concentration not listed). DiscoveRx PathHunter D2 beta-arrestin, luminescence, 90 min; 100% = 57 uM dopamine signal; in the data active = activation above about 40%; inconclusive = about 15% to 40%; inactive = below about 15%; note: compound concentration not given in the record; the text of the record calls up to 30% inactive
#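 DiscoveRx PathHunter D2 beta-arrestin cells (2,100/well) attached overnight, then compound-stimulated 90 min at 37 C in HBSS/10 mM HEPES/0.1% Tween-20 buffer; beta-galactosidase complementation read by luminescence after 1 h at ambient temperature. Dopamine 57 uM final (EC100) as control.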
# TRPML1 inh = qHTS for Inhibitors of the Human Mucolipin Transient Receptor Potential 1 (TRPML1); AID 624415, 2012; activity change, negative = inhibition, % (test concentration not listed); actives 0.02% (n = 390,000); TRPML1-inducible cells, Ca2+ dye fluorescence, FDSS; hits give low values; inhibition of EC80 agonist-evoked calcium signal; Mucolipin-1 (Homo sapiens), Q9GZU1; in the data active means activity change below about -50%; inconclusive means about -30% to -50%; inactive means above about -30%;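 note: stimulus is agonist 54-4 at its EC80 concentration; % is set by controls: 0 for no effect and ±100 for the full control effect; compound concentration not given in the record; the text of the record puts the active cut at -80%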
#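 Tet-induced TRPML1-DL cells loaded with Ca8 no-wash calcium dye were read kinetically on FDSS. Compound addition was followed by EC80 agonist 54-4 (4 uM final); inhibition was read over 110 s.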
# Active calls of the source: *; ? = inconclusive; . = no result given; & = joins results of further samples; [ ] = remark or other dose.
SMILES,PINK1 modulator,TRPML1 agonist,D2 potentiator,Six1-Eya2 inh,D2 ag,TRPML1 inh
Cc1ccc(NC(=O)Nn2cnnc2)cc1,3.2%,0.6,-11,0,-4.7,-4
CCCSc1nc(O)c(C2OC(=O)c3c2ccc(OC)c3OC)c(=O)n1C (stereo unspecified),0.2%,5.0,-11,0,-1.8,31
CN(C)NC(=O)C12CCC(C)(C(=O)O1)C2(C)C (stereo unspecified),0.8%,0.8,-2,7,-6.2,-10
CC1(C(=O)Nc2cccc3ncccc23)CCN1C(=O)C1(c2ccccc2)CC1 (stereo unspecified),-1.0%,0.0,-14,6,-6.3,0
CC(C)CNC(=O)NC(=O)COc1ncnc2sccc12,1.5%[38.3 µM],2.9,1,-1,-1.7,16
COc1ccccc1N(C(=O)CCl)c1cn(C(C)=O)c2ccccc12,-1.7%,-0.4,-24,0,-4.3,-10
O=S(=O)(/N=C(/Nc1nccs1)c1ccc(F)cc1)c1ccccc1,2.4%,0.2,-21,0,-3.8,5
CN(C)N=Nc1nc2c(c(=O)n(C)c(=O)n2C)n1C,2.3%,0.2,-5,1,-0.2,5
CC(=O)Nc1ccc(C(=O)OCC(=O)NC2CCCCCCC2)cc1,-0.8%,-0.8,-4,4,-1.1,4
CCN(CC)S(=O)(=O)c1cccc(C(=O)N2CC(O)CC2C(=O)OC)c1 (stereo unspecified),-1.8%,-0.4,-3,-1,-3.8,3
COc1ccccc1C(=O)Nc1ccc(Oc2ncnc3sc(-c4ccccc4)cc23)cc1,11%,0.9,-7,3,1.3,-8
CN1CCN(CC(C)(C)NS(=O)(=O)c2ccc(Cl)cc2)CC1,-0.3%[38.3 µM],0.3,-20,4,-1.8,10
CCSc1nc2c(c(=O)[nH]1)C(c1cccs1)C(C(=O)OC)=C(C)N2 (stereo unspecified),4.5%,0.7,-7,9,-5.2,-5
NC(=O)c1nn(-c2ccc(Oc3ccccc3)cc2)c(=O)cc1O,-0.9%,-0.7,5,-22,9.1,14
COc1ccc(C2Nc3ccccc3C(=O)N2O)cc1OC (stereo unspecified),-2.0%,0.9,0,2,-4.9,12
CCOC(=O)C1CCN(C(=O)c2cc(COc3ccc(OC)c4ccccc34)on2)CC1,4.4%,-0.7,-9,-3,4.9,12
O=C(Nc1ccc(OC(F)(F)F)cc1)c1ccc(S(=O)(=O)N2CCOCC2)o1,-1.3%,-0.4,-9,0,2.6,1
O=C(CSCc1cc(=O)n2nc(C3CC3)sc2n1)Nc1ccc(F)cc1,0.1%,-0.2,-9,-2,-0.9,14
CCN1CCCC1CNC(=O)C1c2cc(OC)c(OC)cc2C(=O)N(C)C1c1cccnc1 (stereo unspecified),0.8%,0.5,-3,4,-4.2,2
CCn1c(SC(C)C(=O)NCC2CCCO2)nc2scc(-c3ccccc3)c2c1=O (stereo unspecified),1.9%,0.9,4,8,0.1,8

# The last 2 entries of the part before come first, to join the parts:
SMILES,PINK1 modulator,TRPML1 agonist,D2 potentiator,Six1-Eya2 inh,D2 ag,TRPML1 inh
CCN1CCCC1CNC(=O)C1c2cc(OC)c(OC)cc2C(=O)N(C)C1c1cccnc1 (stereo unspecified),0.8%,0.5,-3,4,-4.2,2
CCn1c(SC(C)C(=O)NCC2CCCO2)nc2scc(-c3ccccc3)c2c1=O (stereo unspecified),1.9%,0.9,4,8,0.1,8
COc1cc(C2NC(=O)NC(C)=C2C(=O)OC2CCCCC2)cc(Br)c1O (stereo unspecified),-1.2%[38.3 µM],0.1,7,-1,2.9,21
CCc1nn(CC(=O)Nc2ccc(C)cc2C)c(=O)c2cc3sccc3n12,-0.8%,-0.5,.,.,.,4
CCCCCn1c(CCC(=O)Oc2ccccc2OC)nc2c1c(=O)[nH]c(=O)n2CCCC,12%,2.2,-29,-8,-0.2,8
CCCn1nnnc1NCc1ccc(N2CCCC2)cc1,2.8%[38.3 µM],-0.8,6,-5,-1.8,11
Cc1ccc(C(=O)NCCN(C)C)cc1C,-2.1%,2.6,-25,3,-1.3,-14
Cc1cccc(Nc2c(-c3ccc(N4CCOCC4)cc3)nc3ncccn23)c1,4.7%,4.1,0,2,-5.0,-18
CCN(CC)S(=O)(=O)c1ccc(OC)c(NC(=O)c2cccs2)c1,3.1%,2.1,-6,-14,-1.1,7
C/C(N)=C(/C#N)C(=O)COC(=O)CCSc1ccccc1,-5.1%&3.9%,0.2&2.3,-4&-9,0&2,-3.4&-0.6,-13&44
CCOC(=O)N(C)c1ccc(C(O)(C(F)(F)F)C(F)(F)F)cc1,2.6%,0.4,-2,9,-0.4,-1
O=C(CN(Cc1ccccc1)C(=O)CCC(=O)Nc1ccccn1)NCc1ccc(F)cc1,-0.5%,0.9,2,-3,0.0,5
Nc1cccc(Nc2nc(OC(C(F)(F)F)C(F)(F)F)nc(OC(C(F)(F)F)C(F)(F)F)n2)c1,?,0.3,-42,-9,-6.4,3
Cc1ccc(N=c2c([N+](=O)[O-])nn(-c3ccc(Cl)cc3)n2O)cc1C,0.4%,-0.2,23,-2,5.8,9
N#Cc1nc(Cl)c(Cl)c(NN)c1Cl,23%,-0.5,9,-17,13,-5
CCOC(=O)N=S(N)(=O)c1ccc(Cl)cc1 (stereo unspecified),-0.7%,-0.9,-2,14,0.3,-11
CN(CC(=O)Nc1nc2ccccc2s1)S(=O)(=O)c1ccc(Br)cc1,?,-0.3,2,-1,2.2,-2
O=C(CSc1nnc(Cc2ccccc2)o1)Nc1ccc(N2CCOCC2)cc1,1.8%,-0.5,-1,-2,-1.3,-9
COc1ccc(Cn2c(=O)oc3ccccc32)cc1F,4.9%,-1.7,2,-4,4.8,0
COc1ccc(N2C(=O)C3CCCN3C2c2ccccc2OC)cc1 (stereo unspecified),0.7%,0.7,-1,4,0.7,1
Cc1cccnc1NC(=O)CNC(=O)C12CC3CC(CC(C3)C1)C2,1.7%,-0.2,10,4,1.5,11
CS(=O)(=O)c1cnc2c(-c3ccsc3)cnn2c1N,-1.2%,2.3,-2,7,-1.7,6
O=C(CN1CCN(Cc2ccc(Cl)cc2)CC1)N/N=C/C=C/c1ccccc1[N+](=O)[O-],4.7%,0.6,-14,-27,-0.5,-5
O=C(OCC(=O)N1CCc2ccccc21)c1ccccn1,0.4%,-0.6,-6,4,-2.0,-3
O=C(Cc1ccccc1)N1CCN(C(=O)c2cccs2)CC1,0.5%,0.4,-10,-1,-0.2,3
CCC[C@@H]1CCCC/C=C\CCCC(=O)OCCN1C(=O)OC(C)(C)C,26%,7.0,-5,6,-4.3,-13
CC(C)(C)NC(=O)CN(CC1CCCO1)C(=O)CNS(=O)(=O)c1ccc(F)cc1 (stereo unspecified),-1.4%,-0.1,-4,8,3.3,-19
COc1ccc(S(=O)(=O)N(C(=O)c2ccncc2)c2ccc3oc4c(c3c2)CCCC4)cc1,?,1.2,-18,-18,-0.7,2
COc1ccc(Oc2ncnc3c2oc2ccccc23)cc1,-0.4%,2.3,.,.,.,15
OC(c1ccccc1)c1ncc(-c2ccc(Cl)cc2)[nH]1 (stereo unspecified),0.5%,-0.9,-4,-13,-1.2,.
CCOC(=O)C1CCN(c2c(C(=O)c3ccccc3)cnc3ccc(Cl)cc23)CC1,1.9%,0.3,-3,-3,0.2,46
COc1ccc(/C=N/NC(=O)c2cc(C(C)(C)C)[nH]n2)cc1COc1ccc(F)cc1F,15%,2.3,-13,-14,-1.0,46
O=C(C1CCCN(S(=O)(=O)c2ccc([N+](=O)[O-])cc2)C1)N1CCCCC1 (stereo unspecified),2.6%,-0.3,26,-4,7.1,-10
Cc1ccc(C(=O)N[C@@H](Cc2ccccc2)C(=O)N2CCC3(CC2)NCCc2[nH]cnc23)cc1C,0.9%,0.2,-9,-4,-0.7,-8
COc1ccc(Cl)cc1C(=O)Nc1ccc(NC(C)=O)cc1,0.9%,2.5,-10,-22,3.1,6
CC1(C(=O)NS(=O)(=O)c2ccccc2OC(F)(F)F)CCN1C(=O)c1ccco1 (stereo unspecified),2.9%,0.0,1,5,2.0,.
COc1cc(C(=O)NCC(c2cccnc2)N2CCN(C)CC2)cc(OC)c1OC (stereo unspecified),-3.4%,0.1,-4,3,-3.9,6
CCOc1ccc(/C=N/NC(=O)CC(=O)Nc2ccc(Cl)c(Cl)c2)cc1,11%,-0.2,-22,1,-1.2,-7
CC(=O)Nc1cccc(OCC(=O)NCCC2=CCCCC2)c1,0.0%,-0.4,-3,5,-1.8,-15
Cc1cc(NC(=O)c2oc3c(c2C)-c2[nH]ncc2CC3)ccc1Br,2.6%,1.3,.,.,.,0
Cc1nnc(NC(=O)CN2C(=O)NC3(CCCC3)C2=O)s1,-1.1%,-0.1,3,0,-5.2,-2
COc1cc(/C=N/N=C2/NC(=O)C(CC(=O)O)S2)ccc1OCc1cccc(Cl)c1 (stereo unspecified),-1.1%,0.0,-3,-8,-1.4,-2

# Individual results from above.
# `Cc1ccc(NC(=O)Nn2cnnc2)cc1` in D2 ag has -4.7
# `NC(=O)c1nn(-c2ccc(Oc3ccccc3)cc2)c(=O)cc1O` in Six1-Eya2 inh has -22
# `O=C(CN1CCN(Cc2ccc(Cl)cc2)CC1)N/N=C/C=C/c1ccccc1[N+](=O)[O-]` in D2 ag has -0.5
# `CCN(CC)S(=O)(=O)c1cccc(C(=O)N2CC(O)CC2C(=O)OC)c1` (stereo unspecified) in D2 ag has -3.8
# `COc1ccccc1N(C(=O)CCl)c1cn(C(C)=O)c2ccccc12` in TRPML1 inh has -10
# `COc1ccc(Oc2ncnc3c2oc2ccccc23)cc1` in PINK1 modulator has -0.4%
# `Cc1ccc(N=c2c([N+](=O)[O-])nn(-c3ccc(Cl)cc3)n2O)cc1C` in Six1-Eya2 inh has -2

# Additional records follow:
SMILES,PINK1 modulator,TRPML1 agonist,D2 potentiator,Six1-Eya2 inh,D2 ag,TRPML1 inh
O=C(CSc1nc2ccccc2c(=O)n1CC1CCCO1)Nc1ccccc1 (stereo unspecified),2.5%,2.0,-1,-6,1.2,-4
Cc1ccnc(Nc2ccc(CCO)cc2)n1,1.0%,-0.5,-3,2,-2.5,.
O=C(CNC(=O)c1ccc(Cl)cc1Cl)OCn1nnc2ccccc2c1=O,-1.1%,0.8,-8,-5,-2.1,40
CCOC(=O)c1c(/N=C/c2ccc(C)cc2O)sc2c1CCN(C)C2,0.1%,0.6,-7,-4,5.9,6
CCC(C)c1ccc(NC(=O)NCCN2CCCCC2)cc1 (stereo unspecified),2.4%,1.7,-9,1,-2.7,-16
CCCCn1c(SCC(=O)Nc2oc(C)c3c(C)n[nH]c(=O)c23)nc2cc(S(N)(=O)=O)ccc21,3.1%,-0.7,-17,-6,-6.8,-6
CCc1nc(SCC(=O)c2cccc([N+](=O)[O-])c2)n[nH]1,0.9%,-0.4,-2,3,-0.8,13
CCOC(=O)c1cnn2c(C(F)(F)F)cc(-c3ccccc3)nc12,9.8%[38.3 µM],-0.6,1,7,2.6,2

# Not a hit list, and some 1% of all compounds hit somewhere here.
